# Env fusion inh – inhibitors of HIV-1 Env-driven cell-cell fusion, primary screen, HeLa-JRFL effector, CEM21 target cells, luciferase | inhibition, % at 12.3 µM | hit rate 1.1% among 360,000 | AID 651610, 2012;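 active = mean replicate inhibition score of at least 50 and every replicate individually at or above 50; inconclusive = only one of the two criteria met; inactive = mean below 50 and not all replicates reaching 50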;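 note: 0% = plate neutral controls and 100% = maraviroc near 300 nM; one replicate is shown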
# CSC inhib – cancer stem cell viability inhibitors, primary screen, luminescence; cancer stem cell-like cells viability; inhibition, % at 7.5 µM; hit rate 1.1% among 300,000; AID 2717, 2010;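 active = mean at 75% or more and at least half the replicates too; inconclusive = mean and replicates disagree; tested in HMLE shEcad cells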;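 note: 0% = median of negative and 100% = median of positive control wells; the first replicate is given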
# MT1-MMP act inh – blockers of MT1-MMP proenzyme processing, primary screen, HT1080 RFP-PRO-GFP cells, GFP/RFP fluorescence | Matrix metalloproteinase-14 (Homo sapiens), P50281 | GFP/RFP ratio fluorescence, overnight; percent of plate control window, DMSO zero | GFP/RFP ratio change, % at 20 µM | hit rate 0.061% among 360,000;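 active = GFP/RFP ratio change of at least 30% with cell ATP level not reduced by more than half and red fluorescence within 50% of control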; note: strong numbers were not always called active
#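 Material: RFP-PRO-GFP reporter HT1080 cells. Dosing: single-point 20 µM compound, 1% DMSO. Controls: DMSO and RFP-L50D-GFP cell wells. Timing: cells overnight before dosing, compound overnight, 37 °C, 5% CO2. Measure: GFP/RFP fluorescence ratio.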
# UUG fidelity – modulators of yeast start codon fidelity, primary screen, whole organism, S. cerevisiae, single point, plate reader | S. cerevisiae UUG-firefly luciferase reporter, luminescence/redox ratio | activity score, % at 18.7 µM | hit rate 0.13% among 350,000;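 active = replicate mean at a twofold rise or more, about +100% in these data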;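 note: firefly luciferase made from a UUG start codon reports start codon fidelity; reporter light over untreated wells divided by growth signal over untreated wells; some hits fall short of that in this replicate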
# Rce1 inh – yeast Rce1p protease inhibitors, primary screen, biochemical, fluorescence, cell-free homogeneous; yeast membranes, quenched prenylated peptide cleavage fluorescence; CAAX prenyl protease 2 (Saccharomyces cerevisiae (strain ATCC 204508 / S288c)), Q03530; hit rate 0.27% among 290,000; calls only; AID 2563, 2010;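 active = fall in fluorescence gain of 50% or more versus controls, with final raw signal at or below 3038400; inconclusive = same 50% fall but final raw signal above 3038400; inactive = fall in fluorescence gain under 50%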;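 note: plate controls were neutral control wells for no effect and wells lacking membranes for full effect; tested at 10 µM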
# Target sequence (Q03530 whole entry, looked up): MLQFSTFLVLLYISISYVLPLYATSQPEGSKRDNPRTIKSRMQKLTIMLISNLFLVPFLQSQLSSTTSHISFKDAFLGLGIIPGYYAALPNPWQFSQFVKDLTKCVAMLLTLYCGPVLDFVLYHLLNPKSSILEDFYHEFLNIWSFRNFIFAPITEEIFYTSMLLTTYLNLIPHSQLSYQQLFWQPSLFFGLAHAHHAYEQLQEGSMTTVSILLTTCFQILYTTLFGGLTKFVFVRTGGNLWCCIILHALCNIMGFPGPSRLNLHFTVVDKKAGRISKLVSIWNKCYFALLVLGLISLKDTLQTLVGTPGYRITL
# eIF4H FP inh – human eIF4H binding inhibitors, primary screen, translation initiation inhibitor project, biochemical, uHTS, fluorescence polarization; Eukaryotic translation initiation factor 4H (Homo sapiens), Q15056; eIF4H fluorescence polarization binding assay; inhibition, % at 35 µM; hit rate 0.94% among 290,000;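 active = 50% or more with normal probe brightness, or confirmed in later tests; inconclusive = above 50% with abnormal brightness, or retests that disagree; inactive = below 50% or failed in later tests; about a fifth of its hits are not listed in these tables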;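 note: calls also rest on retests at 20 µM and on dose response follow-up; 0% = protein and probe with vehicle and 100% = probe without protein; strong numbers were not always called active; many hits fall short of the cut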
# PABP FP inh – PABP poly(A) RNA binding inhibitors, primary screen, biochemical, fluorescence polarization, uHTS; Polyadenylate-binding protein 1 (Homo sapiens), P11940; inhibition, % at 35 µM; hit rate 1% among 290,000; AID 2014, 2009;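 active = 50% or more with normal probe brightness, or confirmed in later tests; inconclusive = above 50% with abnormal brightness, or retests that disagree; inactive = below 50% or failed in later tests; about a fifth of its hits are not listed in these tables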;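 note: calls also rest on retests at 20 µM and on dose response follow-up; controls were probe without protein and protein plus probe with vehicle; some compounds called inactive have numbers as strong as hits; many hits fall short of the cut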
# eIF4H FP inh retest – further read-out of eIF4H FP inh, marked with its call; inhibition, %; compound at 20 µM; confirmation average;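 mean of two retest wells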
# PABP FP inh retest – also measured in PABP FP inh; calls as there; inhibition, %; compound at 20 µM; confirmation repeats;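 mean of two retest wells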
# MT1-MMP act inh RFP – further read-out of MT1-MMP act inh, marked with its call; RFP signal change, %; measured here: RFP expression control read;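 0 = vehicle wells; hits needed this value within 50% of zero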
# * marks the source's active call; other numbers are inactive results; i = inactive; ? = inconclusive; . = not tested or not shown; & = joins results of further samples; [ ] = dose if it differs, or a comment.
SMILES,Env fusion inh,CSC inhib,MT1-MMP act inh,MT1-MMP act inh RFP,UUG fidelity,Rce1 inh,eIF4H FP inh,PABP FP inh,others
Cc1noc(C)c1S(=O)(=O)N(C)C[C@H]1Oc2c(NS(=O)(=O)c3cn(C)cn3)cccc2C(=O)N([C@H](C)CO)C[C@@H]1C,-15[16.7 µM],.,0,5,-7&0,.,.,.,
COC(=O)[C@@H]1C[C@H]1[C@@H](NC(=O)c1cc(C)on1)c1ccccc1,-4,-9,-1,5,-15,i,.,.,
CCCc1cc(=O)oc2cc(C)cc(OCC(=O)O)c12,7,-16,-3,3,4,i,-3,17,
O=C(N/N=C/C=C\c1ccco1)c1cccnc1,-54,-18,-2,-6,-13,i,62*,41*,eIF4H FP inh retest=98*;PABP FP inh retest=70*
COc1cc(O)c(C(CC(=O)N2CCN(c3ccccc3)CC2)c2cc(OC)c(OC)c(OC)c2)c(OC)c1 (stereo unspecified),-14,-7,0,-1,7,i,-8,-12,
COc1ccccc1NC(=S)NNC(=O)c1nn(C)c(C)c1Br,-17,0,0,6,-31,i,7,-13,
NC(=O)c1cccnc1Oc1cccc(Cl)c1,13,-14,0,6,-16,i,0,11,
CCCCc1nc(SCC(=O)N2CCCC2)c2c(=O)n(C)c(=O)n(C)c2n1,-8,-21,-1,0,6,i,2,-2,
COc1cc(OC)cc(C(=O)NNC(=O)C2CSC3(C)CCC(=O)N23)c1 (stereo unspecified),.,-10,2,-3,-6,.,.,.,
CSc1ccc(-c2ccco2)nn1,-2,-7,-3,-4,.,i,38,6,
CCOC(=O)/C(=C/c1c2ccccc2cc2ccccc12)NC(=O)c1ccccc1,.,22,-1,-4,3,i,6,-1,
Fc1ccc(-c2nnc(N3CCOCC3)c3ccccc23)cc1F,8,2,-4,0,.,i,-13,2,
CCOc1ccc(C(=O)c2ccncc2)cc1,.,.,7,5,6,i,2,4,
COc1ccc2nc3oc(C(=O)Nc4ccc(OC)c(OC)c4)cc3cc2c1,-32,-12,7,3,-12,i,-7,2,
NC(=O)c1ccc(NC(=O)CN2C(=O)NC(c3ccccc3)(c3ccccc3)C2=O)cc1,-7,-15,4,-2,-2,i,2,-2,
C#Cc1cccc(Nc2nc(NCc3ccccc3OC)nc3ccsc23)c1,53,.,-11,-27,-6,.,.,.,
CCc1ccccc1NC(=O)C1CCCN(S(=O)(=O)c2ccc3c(c2)CC(C)N3C(C)=O)C1 (stereo unspecified),-2,-6,5,-6,-32,i,7,6,
Cc1nn(C)c(C)c1NC(=O)CC12CC3CC(CC(C3)C1)C2,-11,.,4,3,.,.,2,2,
COC(=O)[C@H](Cc1ccccc1)NC(=O)O[C@H]1C(=O)c2ccc(OC)cc2O[C@@H]1c1ccc2c(c1)OCO2,.,-2,.,.,.,i,11,7,
CC(OC(=O)/C(C#N)=C/c1ccc(N(C)C)cc1)C(=O)N(C)c1ccccc1 (stereo unspecified),-5,-9,-50,10,-18,i,.,.,
COc1cccc(C(=O)N2CCN(C3CCN(Cc4ccccc4)CC3)CC2)c1OC,-15,12,-1,3,.,i,6,-1,
OCCNCc1ccc(OCc2ccc(Cl)cc2Cl)cc1,-17,-5,2,5,.,i,-5,5,
COc1ccc(-c2cc(=O)oc3c(C)c(O)ccc23)cc1,72*,19,-27,-14,-13,i,10,4,
O=C(NCc1ccccc1Cl)c1cnccc1C(F)(F)F,1,2,2,5,.,i,-5,12,
CC(=O)N(CCc1ccccc1)Cc1cc2cc(C)ccc2[nH]c1=O,-5,0,-3,-3,-3,i,5,-5,

# Next results:
SMILES,Env fusion inh,CSC inhib,MT1-MMP act inh,MT1-MMP act inh RFP,UUG fidelity,Rce1 inh,eIF4H FP inh,PABP FP inh,others
CCSc1nnc(N2C(=O)CC(c3ccsc3)C3=C2CC(C)(C)CC3=O)s1 (stereo unspecified),58*,-12,1,0,-7,i,-10,-4,
CCOC(=O)c1c(C)oc2ccc(OS(C)(=O)=O)cc12,-32,2,0,-3,.,i,4,7,
CC(C)=C1C(=O)NN(c2ccc(C)c(Cl)c2)C1=O,.,34,-1,2,.,i,34,-7,
CCOc1cc(/C=C(\C#N)C(=O)Nc2cccc(C(=O)O)c2)ccc1OCc1ccc(Br)cc1,-101,18,-9,-3,-21,i,86,16,eIF4H FP inh retest=6;PABP FP inh retest=16
O=[N+]([O-])c1cccc(CSc2cccc[n+]2[O-])c1,-10,-4,0,0,.,i,-2,2,
CCC(=O)Nc1cccc(NC(=O)CSc2nnnn2C2CCCC2)c1,.,-10,1,0,-18,i,-7,3,
CC(=O)Nc1ccc(S(=O)(=O)Nc2nc3nc(-c4ccccc4)cc(-c4ccccc4)n3n2)cc1,-12,11,6,3,-9,i,-9,22,
COc1ccc(Cl)cc1NS(=O)(=O)c1cc(Br)cnc1N,-9,-5,-1,1,-6,i,.,.,
Cc1ccccc1-c1nc(CS(=O)(=O)CC(=O)N2CCN(C)CC2)c(C)o1,-4,-11,0,0,2,i,-6,-2,
Cc1[nH]c(=O)[nH]c(=O)c1S(=O)(=O)N1CCCC(C(=O)N2CCN(c3cccc(C(F)(F)F)c3)CC2)C1 (stereo unspecified),-11,-8,1,6,.,i,4,-2,
O=C1CN(C(=O)CC2C(=O)NCCN2Cc2ccccc2C(F)(F)F)CCN1 (stereo unspecified),.,-2,0,3,13,i,13,10,
C/C(=N\NC(=O)COc1ccc(C#N)cc1)c1ccc(N2CCOCC2)cc1,13,-5,4,5,.,i,-7,-1,
COc1ccc(C2SCC(=O)N2Cc2ccccc2)cc1 (stereo unspecified),8,1,4,-2,4,i,-12,-1,
Cc1cc(S(=O)(=O)NC2CCCCC2)ccc1-n1cnnn1,-9,-8,-4,-7,-12,i,-4,7,
C#C[C@]1(O)CCC2C3CCC4=Cc5oncc5CC4(C)C3CCC21C (stereo partly specified),?,5,-2,-13,-24,i,.,.,
CCOc1ccc(OCCn2ccnc2)cc1,15,5,0,4,.,i,6,4,
N#Cc1c(-c2ccccc2)cc(-c2ccccc2)nc1SCCC(=O)O,-16,75*,1,0,5,i,2,14,
O=C(COc1ccccc1Cl)Nc1ccc(N2CCN(C(=O)c3ccccc3)CC2)cc1,.,13,-9,-25,15,i,6,-2,
Cc1cc(=O)[nH]c(N/N=C/C(C)c2ccccc2)n1 (stereo unspecified),16,-8,7,6,-17,i,5,-4,
Cc1oc2c(c(C)cc3oc(=O)c(CC(=O)NCCCO)c(C)c32)c1C,-14,0,0,1,-12,i,-5,6,
NS(=O)(=O)c1ccc(CCNC(=O)C(=O)c2cn(CC(=O)N3CCCC3)c3ccccc23)cc1,-5,-12,-4,2,18,i,-4,6,
c1ccc(-c2cc3ncccc3cn2)cc1,-74,20,1,3,-9,.,.,.,
COc1ccccc1CCC(=O)OCC(=O)N1c2ccccc2NC(=O)C1(C)C,.,-9,-2,5,-4,.,.,.,
CCCCCOC(=O)C1C2C=CC3(CN(c4ccccc4C)C(=O)C13)O2 (stereo unspecified),-21,-7,1,0,0,i,-6,-4,
Cc1cccc(NC(=O)c2cc3c([nH]c4ccccc43)c(C)n2)c1C,-7,-11,5,2,.,i,-5,0,

# More entries.
SMILES,Env fusion inh,CSC inhib,MT1-MMP act inh,MT1-MMP act inh RFP,UUG fidelity,Rce1 inh,eIF4H FP inh,PABP FP inh,others
Cc1cc(C)cc(OCC(O)CN2CCC(CN3C(=O)c4cccc5cccc(c45)C3=O)CC2)c1 (stereo unspecified),3,24,0,-28,-13,i,.,.,
Cc1cc(C(=O)Nc2c(C)nn(Cc3ccc(F)cc3)c2C)on1,1,11,3,2,-9,i,-4,4,
Cn1cc(/C=N/n2cnc3sc4c(c3c2=O)CCCC4)c2ccccc21,-154,.,4,3,.,i,-8,-4,
Clc1cccc(CN2CCCCCC2)c1,4,-2,-1,3,-9,i,8,-9,
CC(C)c1ccccc1-n1cc[nH]c1=S,-16,-2,1,6,.,i,-5,10,
COc1ccccc1N1CCN(/N=C/c2cccc(OC)c2O)CC1,-10,-1,1,-5,.,i,3,-7,
Cn1c(=O)[nH]c(=O)c2c1nc(SCC(O)CO)n2CCCc1ccccc1 (stereo unspecified),-12,9,0,5,7,i,-4,4,
CC(=O)CCc1ccc(OCCCCn2cncn2)cc1,-5,-8,1,3,-22,i,-1,2,
Cc1nc(NC(=O)C2CCCCC2)sc1C,-34,14,0,-2,-3,i,-4,0,
O=c1oc(-c2cccs2)nc2ccc(Cl)cc12,2,4,4,9,.,.,-1,1,
CCCNC(=O)CC(NS(=O)(=O)c1ccc(NC(C)=O)cc1)C(C)C (stereo unspecified),7,-1,2,7,-12,i,-6,0,
Cc1ccc(-n2nc(C)c3c2OC(N)=C(C#N)C3c2cccs2)cc1 (stereo unspecified),-14,-8,4,5,-12,i,3,2,
Cc1cccc(C)c1NC(=O)CN(C)CC(=O)N1CC(=O)Nc2ccccc21,3,-4,0,-2,.,.,.,.,
COc1cc(/C=N\NC(=O)c2cccnc2)ccc1OC(=O)c1ccccc1Cl,-11,-20,-1,-1,-7,i,-3,2,
Cc1ccc(NC(c2ccccc2)c2nc3ccccc3[nH]c2=O)cc1 (stereo unspecified),-33,2,-5,-3,-20,i,-6,-2,
COc1ccc(CCNC(=O)C23CCC(C)(C(=O)C2=O)C3(C)C)cc1OC (stereo unspecified),-6,2,-1,3,-16,i,-5,5,
O=C(CCNC(=O)c1ccc([N+](=O)[O-])cc1)Nc1ccccc1N1CCOCC1,17,-16,-4,0,.,i,2,27,
COc1ccc(/C(O)=C2/C(=O)C(=O)N(CCCN3CCOCC3)C2c2ccc(N(C)C)cc2)cc1 (stereo unspecified),-17,-22,0,1,13,i,-2,2,
COc1ccc(C(=O)C[n+]2cc(Br)cc3ccccc32)cc1[N+](=O)[O-],13,-7,-11,3,-4,i,?,?,
Cc1cccc(-c2nc(Nc3ccc(N4CCOCC4)cc3)c3ccccc3n2)c1,23,67,1,-2,-15,i,4,3,
Cc1ccc(S(=O)(=O)N(C)C)cc1NC(=O)C(C)OC(=O)/C=C/c1cccs1 (stereo unspecified),7,-11,5,0,5,i,-9,-4,
Cc1ccsc1C(=O)OCC(=O)N1CCc2ccccc2C1,-63,-6,3,2,-19,i,3,0,
CCOc1ccc(Br)cc1S(=O)(=O)Nc1ncn[nH]1,-21,-1,0,1,-15,i,-9,0,
CCCCn1cnc2c(sc3nc4c(cc32)CSC(C)(C)C4)c1=O,-98,?,8,-7,-20,i,-1,-10,

# Reprinted at random: 3 compounds from above
SMILES,Env fusion inh,CSC inhib,MT1-MMP act inh,MT1-MMP act inh RFP,UUG fidelity,Rce1 inh,eIF4H FP inh,PABP FP inh,others
COc1ccccc1N1CCN(/N=C/c2cccc(OC)c2O)CC1,-10,-1,1,-5,.,i,3,-7,
Cc1ccc(NC(c2ccccc2)c2nc3ccccc3[nH]c2=O)cc1 (stereo unspecified),-33,2,-5,-3,-20,i,-6,-2,
Cc1ccsc1C(=O)OCC(=O)N1CCc2ccccc2C1,-63,-6,3,2,-19,i,3,0,
